Screening data deposited in PubChem BioAssay by Broad Institute.
MLL AF4-AF9 inh = inhibitors of AF4 peptide binding to AF9, primary screen, biochemical, AlphaScreen, biotin-AF4 peptide, FLAG-AF9, single point | Protein AF-9 (Homo sapiens), P42568 | inhibition, % at 10 µM | hit rate 0.47% among 350,000;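 active means every replicate reaching a set inhibition limit, whatever the replicate mean, cut at about 25% in these data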;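 further: 0% = plate neutral control median and 100% = total signal loss; the record names both 10 and 1 µM as test concentration; the first replicate is given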
Target sequence (P42568 whole entry, looked up): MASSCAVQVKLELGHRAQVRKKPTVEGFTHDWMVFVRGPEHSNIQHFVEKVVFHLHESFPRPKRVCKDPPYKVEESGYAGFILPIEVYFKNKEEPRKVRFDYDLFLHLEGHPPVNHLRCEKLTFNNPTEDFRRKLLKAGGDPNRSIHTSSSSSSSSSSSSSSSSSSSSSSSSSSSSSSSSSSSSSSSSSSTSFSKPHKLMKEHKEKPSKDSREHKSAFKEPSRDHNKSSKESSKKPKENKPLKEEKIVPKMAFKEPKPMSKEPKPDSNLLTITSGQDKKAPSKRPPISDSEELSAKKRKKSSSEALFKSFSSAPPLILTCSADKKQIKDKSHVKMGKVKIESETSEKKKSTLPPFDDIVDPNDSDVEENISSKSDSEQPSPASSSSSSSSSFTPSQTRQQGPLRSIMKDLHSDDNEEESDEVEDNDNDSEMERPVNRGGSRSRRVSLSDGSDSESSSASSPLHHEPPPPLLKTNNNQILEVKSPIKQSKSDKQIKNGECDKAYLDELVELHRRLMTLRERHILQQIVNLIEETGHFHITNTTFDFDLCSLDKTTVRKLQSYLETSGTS
* marks the source's active call; other numbers are inactive results; & = joins results of further samples.

SMILES | MLL AF4-AF9 inh
COc1cccc(C(=O)Nc2ccc3c(c2)C(=O)N(C)C[C@@H](OC)[C@H](C)CN(CCc2ccccc2)[C@@H](C)CO3)c1 | 0.6
C[C@@H]1CN([C@@H](C)CO)C(=O)c2cc(NS(=O)(=O)c3ccc(F)cc3)ccc2O[C@H]1CN(C)Cc1ccccc1 | 1.4
C[C@H](CO)N1C[C@H](C)[C@H](CN(C)Cc2ccc(-c3ccccc3)cc2)Oc2ccc(NC(=O)Cn3cnnn3)cc2CC1=O | 4.6
COc1ccc(S(=O)(=O)Nc2ccc3c(c2)C(=O)N([C@@H](C)CO)C[C@@H](C)[C@H](CN(C)S(=O)(=O)c2ccccc2)OCCCC[C@@H](C)O3)cc1 | -0.2
CN1C(=O)c2cc(NC(=O)C3CC3)ccc2OC[C@H]2O[C@H](CC(=O)NCCN3CCCC3)CC[C@H]21 | -0.2
Cc1ccc(S(=O)(=O)NC(=O)C2(C)CCN2C(=O)c2c(C)noc2C)cc1 (stereo not given) | 4.0
CCCc1cn(CC[C@H]2CC[C@@H](NC(=O)CCN3CCCCC3)[C@@H](CO)O2)nn1 | -0.6
CO[C@@H]1CN(C)C(=O)c2cc(NS(C)(=O)=O)ccc2OC[C@H](C)N(CCC(F)(F)F)C[C@H]1C | -1.2
COc1cccc(C#Cc2cnc3c(c2)C(=O)N([C@@H](C)CO)C[C@@H](C)[C@@H](CN(C)C(=O)C2CC2)O3)c1 | -0.3
C/C=C/c1cnc2c(c1)C(=O)N([C@H](C)CO)C[C@@H](C)[C@@H](CN(C)Cc1ccccc1F)O2 | -2.5
COc1ccc(S(=O)(=O)N(C)C[C@@H]2Oc3ccc(NC(=O)CCC(F)(F)F)cc3C(=O)N([C@@H](C)CO)C[C@H]2C)cc1 | -1.3
Cc1ccccc1-c1ccc([C@@H]2[C@@H](CO)N3CCCCN(C(=O)Nc4cccc(F)c4)C[C@H]23)cc1 | 8.1
C[C@H](CO)N1C[C@H](C)[C@H](CN(C)C(=O)Cc2ccncc2)Oc2ncc(C3=CCCCC3)cc2C1=O | 1.7
CC[C@]12c3[nH]c4cc(-c5ccco5)ccc4c3CCN1C(=O)[C@@H](CC(=O)NCCCN(C)C)C[C@@H]2C(=O)N1CCN(C(=O)C2CC2)CC1 | 7.9
O=C(C[C@H]1C[C@@H]2c3cc(NC(=O)Nc4ccc(C(F)(F)F)cc4)ccc3O[C@@H]2[C@@H](CO)O1)NCc1ccc(Cl)cc1 | 1.7
Cc1ccc(S(=O)(=O)Nc2ccc3c(c2)CC(=O)N([C@@H](C)CO)C[C@H](C)[C@@H](CN(C)S(C)(=O)=O)O3)cc1 | 3.5
CCO[C@H]1OC(C(=O)N2CCCC2)=C[C@@H](c2ccc(C(F)(F)F)cc2)[C@@H]1CCCO | -3.2
C[C@H]1CN([C@@H](C)CO)C(=O)c2cccc(NC(=O)c3ccncc3)c2O[C@@H]1CN(C)Cc1ccc(C(F)(F)F)cc1 | 4.8
CCC(=O)NC[C@H]1[C@@H](c2ccc(-c3ccc(C#N)cc3)cc2)[C@@H](CO)N1CCC(F)(F)F | -2.2
COCC(=O)N(C)C[C@H]1Oc2ncc(C#C[C@H](C)O)cc2C(=O)N([C@@H](C)CO)C[C@H]1C | -0.7&-2.4&-4.2
Cc1cc(N2CCN(C(=O)Oc3ccc([N+](=O)[O-])cc3)CC2)c2ccccc2n1 | 6.6
CC(=O)N(C)C[C@H]1Oc2cc(C#Cc3cccnc3)ccc2S(=O)(=O)N([C@H](C)CO)C[C@H]1C | 0.5
COc1ccc(NC(=O)Nc2cccc3c2O[C@@H](CN(C)C(=O)NC2CCCCC2)[C@H](C)CN([C@@H](C)CO)C3=O)cc1 | -2.9
COc1ccccc1NC(=O)N(C)C[C@@H]1Oc2ncc(C#CCC(C)C)cc2C(=O)N([C@H](C)CO)C[C@@H]1C | -1.0
Cc1ccc(S(=O)(=O)N(C)C[C@H]2OCCCC[C@H](C)Oc3ccc(NC(=O)Nc4cccc5ccccc45)cc3C(=O)N([C@H](C)CO)C[C@@H]2C)cc1 | 1.6
Cn1nccc1-c1ccc(C(=O)Nc2cccc(NS(C)(=O)=O)c2)c2occc12 | 0.8
CCCc1c(-c2cccc(Cl)c2)ncn1Cc1ccccc1OC | -0.2
O=S(=O)(c1cccs1)N1CCCCN2[C@H](CO)[C@H](c3ccc(Br)cc3)[C@@H]2C1 | -2.6
CCCC#Cc1cnc2c(c1)C(=O)N([C@H](C)CO)C[C@@H](C)[C@@H](CN(C)S(C)(=O)=O)O2 | -35
CO[C@@H]1CN(C)C(=O)c2cc(NC(=O)NC3CCCCC3)ccc2OC[C@H](C)N(C)C[C@@H]1C | -0.1
C[C@@H]1CN([C@@H](C)CO)C(=O)c2cc(C#Cc3ccccc3F)cnc2O[C@H]1CN(C)C(=O)C1CC1 | -0.3
CC(C)C(=O)Nc1ccc2c(c1)C(=O)N(C)[C@H]1CC[C@H](CC(=O)O)O[C@H]1CO2 | -2.1
COc1ccc(NC(=O)Nc2ccc3c(c2)C(=O)N([C@H](C)CO)C[C@@H](C)[C@H](CN(C)Cc2ccncc2)O3)cc1 | -6.9
COc1ccc(S(=O)(=O)Nc2ccc3c(c2)C(=O)N([C@H](C)CO)C[C@H](C)[C@@H](CN(C)S(=O)(=O)c2cccs2)OCCCC[C@@H](C)O3)cc1 | -2.4
COC(=O)C1=C(C)N(Cc2ccc(C(F)(F)F)cc2)C(=NCc2ccc3c(c2)OCO3)NC1c1ccccc1 (stereo not given) | 17
O=C(C[C@@H]1CC[C@@H]2[C@H](COC[C@@H](O)CN2Cc2ccc(Oc3ccccc3)cc2)O1)N1CCCCC1 | 2.7

Part of the list above in order of SMILES length, falling:
SMILES | MLL AF4-AF9 inh
CO[C@@H]1CN(C)C(=O)c2cc(NC(=O)NC3CCCCC3)ccc2OC[C@H](C)N(C)C[C@@H]1C | -0.1
CC(C)C(=O)Nc1ccc2c(c1)C(=O)N(C)[C@H]1CC[C@H](CC(=O)O)O[C@H]1CO2 | -2.1
O=S(=O)(c1cccs1)N1CCCCN2[C@H](CO)[C@H](c3ccc(Br)cc3)[C@@H]2C1 | -2.6

(further entries)
SMILES | MLL AF4-AF9 inh
C[C@H](CO)N1C[C@H](C)[C@@H](CN(C)C(=O)Nc2cccc3ccccc23)OCCCC[C@H](C)Oc2ccc(NC(=O)c3ccncc3)cc2C1=O | -3.8
C[C@@H]1CCCCO[C@@H](CN(C)C(=O)Cc2ccccc2)[C@H](C)CN([C@@H](C)CO)C(=O)c2cc(NC(=O)c3ccccc3)ccc2O1 | -3.9
C[C@H]1CN([C@@H](C)CO)C(=O)Cc2cc(NS(=O)(=O)c3cccs3)ccc2O[C@@H]1CN(C)C | -1.9
CCc1nc2c(OCc3ccc(Cl)cc3)cccn2c1N(C)C(=O)c1ccc(C)cc1 | 1.4
CC(C)NC(=O)N1C[C@H]2[C@@H](c3ccccc31)[C@H](CO)N2C(=O)c1cccnc1 | -12
O=C(C[C@@H]1CC[C@H]2[C@@H](COC[C@@H](O)CN2C(=O)Nc2ccc(Cl)c(Cl)c2)O1)NCc1ccc(Cl)c(Cl)c1 | 1.7
CC(C)NC(=O)Nc1cccc2c1O[C@H](CN(C)C)[C@@H](C)CN([C@@H](C)CO)C2=O | -0.2
Cc1ccc(-c2ccc(CN3C(CC(C)C)C(=O)N(Cc4cn(CCC5OCCCO5)nn4)CCS3(=O)=O)cc2)cc1 (stereo not given) | -1.2
C[C@@H]1CN([C@H](C)CO)S(=O)(=O)c2ccc(C3=CCCCC3)cc2O[C@@H]1CN(C)C(=O)Cc1ccncc1 | 6.9
COCC(=O)Nc1ccc2c(c1)OC[C@@H](C)N(C(=O)CC1CC1)C[C@H](C)[C@@H](OC)CN(C)C2=O | -3.6
C[C@@H]1CN([C@H](C)CO)C(=O)c2cc(NC(=O)Nc3ccc4c(c3)OCO4)ccc2O[C@@H]1CN(C)Cc1ccc2c(c1)OCO2 | 7.2
COc1ccc(S(=O)(=O)N[C@H]2C=C[C@H](CC(=O)O)O[C@@H]2CO)cc1 | -2.0
CC(C)C[C@@H](CN1CCC[C@H]1CN1C(=O)C(=O)NC[C@@H]1Cc1ccccc1)N1C[C@H](Cc2ccc(O)cc2)N(CC2CCCCCC2)C(=O)C1=O | 1.0
O=C(Cn1cnc2cc([N+](=O)[O-])ccc2c1=O)Nc1cccc(S(=O)(=O)N2CCCCC2)c1 | 6.5
O=C(Nc1cc(F)ccc1F)N1C[C@@H]2[C@H](c3ccccc31)[C@@H](CO)N2CC1CCCC1 | 3.6
C[C@@H]1CN([C@@H](C)CO)C(=O)c2cc(NC(=O)Nc3ccccc3)ccc2O[C@@H](C)CCCCO[C@@H]1CN(C)Cc1ccccc1 | 2.7
CO[C@@H](CN(C)C(=O)c1ccccc1F)[C@@H](C)CN([C@@H](C)CO)S(=O)(=O)c1ccc(Cl)cc1 | 0.2
C[C@H]1CN([C@@H](C)CO)C(=O)c2cccc(NS(=O)(=O)c3ccccc3)c2O[C@H]1CN(C)Cc1ccc(C(=O)O)cc1 | -0.6
OC[C@H]1[C@H](c2ccccc2)C2(CN(Cc3cccnc3)C2)N1Cc1ccncc1 | 3.3
CC(C)NC(=O)N(C)C[C@H]1Oc2ncc(C#CC3CC3)cc2C(=O)N([C@H](C)CO)C[C@@H]1C | -4.1
C[C@@H]1CN([C@@H](C)CO)C(=O)CCCn2cc(nn2)CO[C@H]1CN(C)C(=O)Nc1ccccc1F | -0.2&-1.1&-1.7
CO[C@H]1CN(C)C(=O)c2ccc(NC(=O)NC(C)C)cc2OC[C@@H](C)N(Cc2ccccn2)C[C@@H]1C | -1.6
CCCN(C(=O)c1cc(S(=O)(=O)N(C)c2ccccc2OC)ccc1C)C1CCS(=O)(=O)C1 (stereo not given) | 0.3
COc1ccc(-c2cnc3c(c2)C(=O)N([C@H](C)CO)C[C@@H](C)[C@H](CN(C)C(=O)NC2CCCC2)O3)cc1 | -1.3
Cc1ccccc1-c1cnc2c(c1)C(=O)N([C@H](C)CO)C[C@@H](C)[C@H](CN(C)C(=O)c1ccccc1)O2 | -7.4
CCC(=O)N[C@H]1C=C[C@H](CC(=O)NCc2ccccc2OC)O[C@@H]1CO | -4.7
C[C@H]1CN([C@@H](C)CO)C(=O)c2cc(NC(=O)CCN3CCOCC3)ccc2O[C@H]1CN(C)C | -1.2
CCC(=O)N(C)C[C@H]1N[C@@H](CO)[C@H]1c1ccc(-c2cccc(C#N)c2)cc1 | -1.8
CC(C)NC(=O)N(C)C[C@@H]1OCCCC[C@@H](C)Oc2ccc(NC(=O)C3CCCCC3)cc2C(=O)N([C@@H](C)CO)C[C@@H]1C | -0.9
CN(Cc1ccccc1)C(=O)c1csc([C@H]2C[C@H](O)[C@@H](CO)O2)n1 | -1.2
CC=Cc1ccc2n(c1=O)C[C@H]1[C@H](CO)[C@@H](C(=O)NC3CCCC3)N[C@@H]21 (mixture of isomers) | -3.2
C[C@H]1CCCCO[C@@H](CN(C)Cc2ccncc2)[C@@H](C)CN([C@@H](C)CO)C(=O)c2cc(NS(=O)(=O)c3cn(C)cn3)ccc2O1 | -3.5
CN(C)C(=O)c1cccc(-c2ccccc2[C@H]2[C@H](C#N)N(C(=O)C3CCC3)[C@H]2CO)c1 | -1.0
C[C@@H]1CN([C@H](C)CO)C(=O)Cc2cc(NC(=O)Nc3ccc4c(c3)OCO4)ccc2O[C@H]1CN(C)Cc1ccc(Oc2ccccc2)cc1 | 3.4
C[C@H](CO)N1C[C@H](C)[C@@H](CN(C)C(=O)c2cccc(F)c2)Oc2cc(-c3cccc(F)c3)ccc2S1(=O)=O | 3.8
COc1ccccc1-c1cn(CC[C@H]2CC[C@H](NC(=O)CCN3CCCCC3)[C@@H](CO)O2)nn1 | 0.5

Grouped by structure: the entries above with a Cl atom
SMILES | MLL AF4-AF9 inh
O=C(C[C@H]1C[C@@H]2c3cc(NC(=O)Nc4ccc(C(F)(F)F)cc4)ccc3O[C@@H]2[C@@H](CO)O1)NCc1ccc(Cl)cc1 | 1.7
CCCc1c(-c2cccc(Cl)c2)ncn1Cc1ccccc1OC | -0.2
CCc1nc2c(OCc3ccc(Cl)cc3)cccn2c1N(C)C(=O)c1ccc(C)cc1 | 1.4
O=C(C[C@@H]1CC[C@H]2[C@@H](COC[C@@H](O)CN2C(=O)Nc2ccc(Cl)c(Cl)c2)O1)NCc1ccc(Cl)c(Cl)c1 | 1.7
CO[C@@H](CN(C)C(=O)c1ccccc1F)[C@@H](C)CN([C@@H](C)CO)S(=O)(=O)c1ccc(Cl)cc1 | 0.2

Continued.
SMILES | MLL AF4-AF9 inh
CCCNC(=O)N1C[C@@H](C)[C@H](OC)CN(C)C(=O)c2ccc(NC(C)=O)cc2OC[C@H]1C | -3.6
CC(=O)Nc1ccc(-c2ccnc3c2CC(C(=O)Nc2ccc4c(c2)OCO4)O3)cc1 (stereo not given) | 0.8
CNC[C@@H]1Oc2ccc(NC(=O)Cc3ccccc3)cc2C(=O)N([C@@H](C)CO)C[C@@H]1C | -2.7
CN(C)CCNC(=O)c1cccc(-c2cnc3c(NC=O)cc(-c4ccc(F)cc4)cn23)c1 | 13
COc1ccc(S(=O)(=O)Nc2ccc3c(c2)C(=O)N([C@H](C)CO)C[C@H](C)[C@H](CN(C)Cc2ccccc2)O3)cc1 | -0.6
Cc1noc(C)c1S(=O)(=O)N(C)C[C@@H]1Oc2ccc(N(C)C)cc2CC(=O)N([C@@H](C)CO)C[C@@H]1C | 3.4
CC[C@@H]1CC2=C(C(=O)OC(C)(C)O2)[C@H](c2ccc(Cl)cc2)O1 | -1.5
Cc1ccc(S(=O)(=O)N[C@@H]2CC[C@H](CCNC(=O)c3ccccc3F)O[C@@H]2CO)cc1 | -0.3
C/C=C/c1cnc2c(c1)C(=O)N([C@@H](C)CO)C[C@@H](C)[C@@H](CN(C)C(=O)CN1CCOCC1)O2 | 0.1

The list is partial (hit frequency here may not be typical).
